Compound activity deposited in PubChem BioAssay by NMMLSC.
Bead autofluor – counter-screen for toxin protease inhibitors: compound fluorescence. hit rate 3.1% among 360,000. compound autofluorescence counterscreen, microsphere flow cytometry; active compounds read high. fluorescence intensity (no concentration beside the values);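 active = at least 3 SD above the mean of all compounds, about 16000 in these data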;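 also: 100 nL of 1 mM stock went into each well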
Active calls of the source: *. These rows are one share of the data, so the mix of outcomes need not match the whole.

How did COc1ccccc1Cc1c(-c2ccccc2)nc2cc(C)c(Br)c(C)n12 do in these assays?
Bead autofluor: 4357

How did CN(C)c1ncnc2c1ncn2[C@H]1CN(CCN2CCOCC2)C[C@@H](CO)O1 do in these assays?
Bead autofluor: 3795

How did Cc1cc(C)n2c(NC3CCCCC3)c(-c3ccccn3)nc2n1 do in these assays?
Bead autofluor: 5797

How did Cc1ccc(S(=O)(=O)N2C[C@H]3n4c(=O)ccc(=O)n4C[C@H](OC(=O)NC4CCCC4)[C@@]3(O)C2)cc1 do in these assays?
Bead autofluor: 3325

What do the screens show for `CCc1nc2ccc(C(=O)Nc3cccc(NS(C)(=O)=O)c3)cn2c1N(CC)CCOC`?
Bead autofluor: 4011

Results for O=C1NCN(c2ccccc2)C12CCN(C(c1nnnn1C1CCCCC1)C1CC1)CC2 (stereo unspecified) ?
Bead autofluor: 6036

What do the screens show for `Cc1ccc(-c2cnc(C(O)c3ccc(C)cc3)[nH]2)cc1` (stereo unspecified)?
Bead autofluor: 2853

Results for CC(=Nc1ccccc1)C1=C(O)C(Cc2cccc(F)c2)NC1=O (stereo unspecified) ?
Bead autofluor: 4062

Results for CC(C)(C)N1CC(C(=O)Nc2ccc(C(N)=O)cc2)CC1=O (stereo unspecified) ?
Bead autofluor: 3673

How did OC[C@@H]1CN(Cc2ccc(F)cc2)C[C@H](n2cnc3c(NCc4ccc(F)cc4)ncnc32)O1 do in these assays?
Bead autofluor: 2681

Results for Cn1c(=O)c2cc(NC(=O)Cc3ccccc3F)ccc2n1C/C=C/c1ccccc1 ?
Bead autofluor: 3498

How did CC1=C(C(=O)N2CCCCCC2)CC(CC(=O)NCc2ccco2)C(=O)N1Cc1ccccc1 (stereo unspecified) do in these assays?
Bead autofluor: 6003

What do the screens show for `O=C(CSc1nnc(-c2ccccc2F)n1C1CC1)N1CCCC1`?
Bead autofluor: 3761

What do the screens show for `O=c1[nH][nH]c2c1C(c1ccc(F)cc1)OC(CCc1ccccc1)C2` (stereo unspecified)?
Bead autofluor: 5978

Results for CCc1nc2c(OCC(=O)C(C)(C)C)cccn2c1N(C)C(=O)C(C)C ?
Bead autofluor: 3068

What do the screens show for `C[C@@H]1CCCCO[C@H](CN(C)C(=O)Nc2ccc(C(F)(F)F)cc2)[C@@H](C)CN([C@H](C)CO)C(=O)c2cc(NC(=O)Nc3ccc4c(c3)OCO4)ccc2O1`?
Bead autofluor: 4792

What do the screens show for `CC(C)CNc1ncnc2c1ncn2[C@H]1CN(Cc2ccc(-c3ccccc3)cc2)C[C@@H](CO)O1`?
Bead autofluor: 3536

How did Cc1cc2nc(-c3cccc(Cl)c3)c(CC3CCCCC3)n2c(C)c1Br do in these assays?
Bead autofluor: 6210

What do the screens show for `COc1ccc(OC)c(CN2CCN(C(=O)c3ccc(S(=O)(=O)N4CCCCCC4)cc3)CC2)c1`?
Bead autofluor: 3973

Results for O=C(/C=C/[C@H]1O[C@@H](n2ccc(=O)[nH]c2=O)[C@H](O)[C@@H]1O)NCc1ccccc1 ?
Bead autofluor: 4524

What do the screens show for `O=C(NCCC(F)(F)F)C1Cc2c(-c3ccccc3Oc3ccccc3)ccnc2O1` (stereo unspecified)?
Bead autofluor: 2872

Results for O=C(NC1CCCCC1)C1c2ccccc2OCC(=O)N1Cc1ccco1 (stereo unspecified) ?
Bead autofluor: 5620

What do the screens show for `O=S1(=O)CC(N2CCCC2)CN1Cc1ccccc1` (stereo unspecified)?
Bead autofluor: 5954

Results for CNc1cncc(-c2cccnc2)n1 ?
Bead autofluor: 3923

Results for C[C@H](O)[C@@H]1C(=O)N2CCc3c([nH]c4ccccc34)[C@@H]2C[C@@H]1N(C)C(=O)Nc1ccccc1 ?
Bead autofluor: 3357

How did CC(C)C[C@H]1CN(CCCC[C@@H]2CNC(=O)C(=O)N2Cc2ccccc2)C(=O)C(=O)N1CCc1ccc(O)cc1 do in these assays?
Bead autofluor: 4272

Results for COc1ccc(C(=O)CSc2nc3nn(-c4ccccc4)c(=O)c-3c3n2CCCCC3)c(OC)c1 ?
Bead autofluor: 3906

How did CC(C)[C@@H]1CC[C@@H](C)C[C@H]1O do in these assays?
Bead autofluor: 5721

What do the screens show for `CC(=O)N1Cc2cc(C(=O)NCC(F)(F)F)nc(-c3cccc(-c4cccnc4)c3)c2[C@@H]1CCO`?
Bead autofluor: 5931

How did COc1ccc(NC(=O)c2cc(C3CCCCN3C(=O)OCCF)on2)c(C)c1 (stereo unspecified) do in these assays?
Bead autofluor: 3772

What do the screens show for `Cc1cnc(C)c(Nc2nc(C(N)Cc3ccc(Cl)cc3)cs2)n1` (stereo unspecified)?
Bead autofluor: 3633

Results for CC(=O)N1CCN(C(=O)c2[nH]c(C(F)(F)F)nc2-c2ccccc2)CC1 ?
Bead autofluor: 5951

Results for COc1cccc(Nc2nc(C(N)c3ccccc3Cl)cs2)n1 (stereo unspecified) ?
Bead autofluor: 2984

Results for O=C(C1CCCCC1)N1C[C@@H](O)[C@H](n2cc(-c3ccc(F)cc3)nn2)C[C@@H]1c1ccccc1 ?
Bead autofluor: 2876

How did CC(=O)NC(C)(c1ccccc1)c1nc(-c2ccncc2)cs1 (stereo unspecified) do in these assays?
Bead autofluor: 2988

Results for Cc1ccc(-c2ccccc2C2=CC(=O)CC(C)(C)C2=O)cc1 ?
Bead autofluor: 2946

What do the screens show for `CNC[C@@H]1OCc2ccccc2-c2ccccc2C(=O)N([C@H](C)CO)C[C@@H]1C`?
Bead autofluor: 3692

How did CC(C)NC(=O)C1(C)CCN1C(=O)c1ccc2c(c1)OCO2 (stereo unspecified) do in these assays?
Bead autofluor: 3446

How did CC1(O)C(c2ccccc2)=Nc2ccccc21 (stereo unspecified) do in these assays?
Bead autofluor: 3988

Results for COc1ccc(C(C)C)cc1-c1cccc2nncn12 ?
Bead autofluor: 3778

What do the screens show for `COCCNC(=O)c1nn2c(C(F)(F)F)cc(-c3ccccc3)nc2c1Br`?
Bead autofluor: 3873

How did CCCn1c(N)c(C(=O)CSc2nnc(Cc3cccs3)n2C2CC2)c(=O)[nH]c1=O do in these assays?
Bead autofluor: 3527

Results for COC(=O)[C@@]1(Cc2ccc(F)cc2)[C@H]2c3cc(C(=O)N(C)C)n(CCN4CCOCC4)c3C[C@H]2CN1C(=O)c1ccccc1 ?
Bead autofluor: 5865

How did CCN(CC)c1ccc(C(=O)NNC(=O)Cn2c(=O)cnc3ccccc32)cc1 do in these assays?
Bead autofluor: 2937

How did COc1ccccc1Cc1c(-c2ccc(Cl)cc2)nc2c(Cl)cc(C(F)(F)F)cn12 do in these assays?
Bead autofluor: 7024

What do the screens show for `CC1(C)CC(=O)C=C(C(=O)N2CCCC(C(=O)c3cc(F)ccc3F)C2)O1` (stereo unspecified)?
Bead autofluor: 3934

How did Cc1ccc(S(=O)(=O)N2Cc3cc(-c4cccc(F)c4)ccc3-n3nncc3C2)cc1 do in these assays?
Bead autofluor: 5905

How did CCOC1=C2[C@H](c3ccc(Cl)cc3)N(S(=O)(=O)c3ccc(C)cc3)C[C@H]2n2c(=O)n(-c3ccccc3)c(=O)n2C1 do in these assays?
Bead autofluor: 5443

What do the screens show for `OC(c1cc(F)cc(Cl)c1)c1ncc(-c2ccccc2C(F)(F)F)[nH]1` (stereo unspecified)?
Bead autofluor: 3855

How did CCCCN1C(=O)C(CC(=O)NCc2ccco2)CC(C(=O)N2CCCCCC2)=C1C (stereo unspecified) do in these assays?
Bead autofluor: 6076

Results for C=CCNc1nc(Nc2ccc(OC)c(OC)c2)c2sc(-c3ccccc3)cc2n1 ?
Bead autofluor: 3078

Results for N#Cc1cccc(NC(=O)c2cc(C3CCCCN3C(=O)CCCc3ccccc3)on2)c1 (stereo unspecified) ?
Bead autofluor: 2759

How did CC1(c2nc3ccccc3[nH]2)CCC(=O)N1Cc1ccccn1 (stereo unspecified) do in these assays?
Bead autofluor: 5957

Results for CC(=NCc1ccccc1)c1ccc(O)cc1O ?
Bead autofluor: 3928

Results for COc1ccc(OC)c(NC(=O)C2(C)CCN2Cc2ccccc2OC(F)F)c1 (stereo unspecified) ?
Bead autofluor: 3701

What do the screens show for `COc1cccc(OC)c1NC(=O)c1ccc(-c2cc(Cl)ccc2Cl)o1`?
Bead autofluor: 3524

What do the screens show for `C[C@@H]1CN([C@H](C)CO)C(=O)CCCn2nncc2CO[C@H]1CN(C)Cc1ccccc1C(=O)O`?
Bead autofluor: 3632

Results for CN(C)C(=O)c1cccc(-c2cnc3c(NC=O)cc(-c4ccc(F)cc4)cn23)c1 ?
Bead autofluor: 3681

How did CC1=C(C(=O)N(C(C)C)C(C)C)CC(CC(=O)NCc2cccs2)C(=O)N1Cc1ccccc1 (stereo unspecified) do in these assays?
Bead autofluor: 3589

What do the screens show for `C(=C\c1ccccc1)/CN1CCN(C(c2cc3ccccc3o2)c2nnnn2C2CCCCC2)CC1` (stereo unspecified)?
Bead autofluor: 4464

Arranged by molecular weight (highest first): some entries from above.
What do the screens show for `C(=C\c1ccccc1)/CN1CCN(C(c2cc3ccccc3o2)c2nnnn2C2CCCCC2)CC1` (stereo unspecified)?
Bead autofluor: 4464

How did CC1=C(C(=O)N(C(C)C)C(C)C)CC(CC(=O)NCc2cccs2)C(=O)N1Cc1ccccc1 (stereo unspecified) do in these assays?
Bead autofluor: 3589

What do the screens show for `C[C@@H]1CN([C@H](C)CO)C(=O)CCCn2nncc2CO[C@H]1CN(C)Cc1ccccc1C(=O)O`?
Bead autofluor: 3632

Results for N#Cc1cccc(NC(=O)c2cc(C3CCCCN3C(=O)CCCc3ccccc3)on2)c1 (stereo unspecified) ?
Bead autofluor: 2759

How did Cc1ccc(S(=O)(=O)N2Cc3cc(-c4cccc(F)c4)ccc3-n3nncc3C2)cc1 do in these assays?
Bead autofluor: 5905

Results for C=CCNc1nc(Nc2ccc(OC)c(OC)c2)c2sc(-c3ccccc3)cc2n1 ?
Bead autofluor: 3078

Results for COc1ccc(OC)c(NC(=O)C2(C)CCN2Cc2ccccc2OC(F)F)c1 (stereo unspecified) ?
Bead autofluor: 3701

Results for CN(C)C(=O)c1cccc(-c2cnc3c(NC=O)cc(-c4ccc(F)cc4)cn23)c1 ?
Bead autofluor: 3681

What do the screens show for `OC(c1cc(F)cc(Cl)c1)c1ncc(-c2ccccc2C(F)(F)F)[nH]1` (stereo unspecified)?
Bead autofluor: 3855

How did CC1(c2nc3ccccc3[nH]2)CCC(=O)N1Cc1ccccn1 (stereo unspecified) do in these assays?
Bead autofluor: 5957

Results for CC(=NCc1ccccc1)c1ccc(O)cc1O ?
Bead autofluor: 3928

(cont.)
How did COc1ccc(CNC(=O)Nc2nc(C(N)Cc3ccc(C(F)(F)F)cc3)cs2)cc1 (stereo unspecified) do in these assays?
Bead autofluor: 3867

How did O=C(Nc1ccc2c(c1)OCO2)c1csc([C@@H]2O[C@H](CO)[C@H](O)[C@H](O)[C@H]2O)n1 do in these assays?
Bead autofluor: 3994

What do the screens show for `COc1ccc(OC)c(NC(=O)c2cc(-c3cc(F)ccc3OCC3CCCO3)n[nH]2)c1` (stereo unspecified)?
Bead autofluor: 3691

Results for C[C@H]1CN([C@@H](C)CO)C(=O)c2cc(Br)cnc2O[C@H]1CN(C)C(=O)C1CCC1 ?
Bead autofluor: 3571

How did CCCCCCN1C[C@H](n2cc(C3CC3)nn2)[C@@H](O)C[C@@H]1c1ccc(OC)cc1 do in these assays?
Bead autofluor: 3404

Results for C[C@@H]1CCCCO[C@@H](CN(C)C(=O)c2ccncc2)[C@@H](C)CN([C@H](C)CO)C(=O)c2cc(N(C)C)ccc2O1 ?
Bead autofluor: 3341

What do the screens show for `Cc1cccc(NC(=O)c2nc[nH]c2C(=O)Nc2cc(Br)ccc2F)c1`?
Bead autofluor: 2860

What do the screens show for `CC1(C(=O)O)CCCN(C(=O)c2ccc(F)cc2Cl)C1` (stereo unspecified)?
Bead autofluor: 2835

Results for COc1c2c(c(OC)c3ccccc13)[C@]1(OC2)O[C@H](CCO)C[C@H](O)[C@H]1O ?
Bead autofluor: 6035

Results for COc1ccc(Cl)cc1NC(=O)C1CC(c2ccccc2Cl)=NO1 (stereo unspecified) ?
Bead autofluor: 4319

Results for CC1(C(=O)Nc2ccc(F)cc2F)CCN1C(=O)Cc1ccccc1 (stereo unspecified) ?
Bead autofluor: 2934

Results for CC(=O)c1c(C)[nH]c(C(=O)OCC(=O)N2CCN(c3ccccc3)CC2)c1C ?
Bead autofluor: 3622

What do the screens show for `COc1ccc(C(=O)NC(C)Cc2c[nH]c3ccccc23)cc1` (stereo unspecified)?
Bead autofluor: 3626

What do the screens show for `COc1cccc(NC(=O)Nc2nnc([C@@H]3C[C@H](O)[C@@H](CO)O3)s2)c1`?
Bead autofluor: 3963

Results for Cc1ccc(OC(=O)N(C)C[C@@H]2OCc3cnnn3CCCC(=O)N([C@H](C)CO)C[C@@H]2C)cc1 ?
Bead autofluor: 3488

What do the screens show for `C[C@H]1CN([C@@H](C)CO)C(=O)CCCn2cc(nn2)CO[C@@H]1CN(C)C(=O)OCc1ccccc1`?
Bead autofluor: 4365

Results for CCN(C(=O)c1c([N+](=O)[O-])cnn1C)c1ccccc1 ?
Bead autofluor: 3429

Results for Cc1cccc(C)c1NC(=S)NC(=O)c1cccc(Cl)c1 ?
Bead autofluor: 5077

What do the screens show for `O=C(CC[C@H]1O[C@@H](n2cnc3c(NC(=O)c4ccccc4)ncnc32)[C@H](O)[C@@H]1O)N[C@@H](CO)c1ccccc1`?
Bead autofluor: 5483

What do the screens show for `CN(C)CCCNc1nc2cc(-c3cncnc3)sc2c(=O)n1C`?
Bead autofluor: 3767

How did O=C(Nc1ccccc1)c1nc[nH]c1C(=O)Nc1ccccc1F do in these assays?
Bead autofluor: 3474

Results for COc1ccc([C@H]2C[C@@H](O)C[C@@H](CCn3cc(-c4ccccc4)nn3)O2)cc1 ?
Bead autofluor: 5658

Results for O=C(NCc1ccco1)c1cccc2c(-c3ccc(F)c(F)c3)coc12 ?
Bead autofluor: 3997

Results for CC(=O)Nc1cc(-c2ccccc2N(C)C)cn2c(-c3ccc(F)c(Cl)c3)cnc12 ?
Bead autofluor: 3417

What do the screens show for `c1coc(-c2cc3nc(NC4CCCCC4)ccn3n2)c1`?
Bead autofluor: 3963

What do the screens show for `C[C@H]1CN([C@@H](C)CO)C(=O)CCCn2nncc2CO[C@H]1CN(C)C(=O)c1ccncc1`?
Bead autofluor: 3570

What do the screens show for `CCNC(=O)C1(C)CCN(Cc2cccc(Oc3ccccc3)c2)C1` (stereo unspecified)?
Bead autofluor: 3733
